Screens as filed in PubChem BioAssay.
NPYLR7 ag = agonists of mosquito NPYLR7 receptor, primary screen, cell-based, Aedes aegypti, calcium fluorescence, mosquito biting behavior. 270,000 tested, 0.15% active. HEK293T NPYLR7/Galpha15, GCaMP6s calcium fluorescence. activation, % at 10 µM. Aedes aegypti neuropeptide Y-like receptor 7 (NPYLR7). AID 1259423, 2018; in the data active = activation above about 40%;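 also: 0% = vehicle and 100% = reference agonist at the receptor; some compounds past the cut are filed as inactive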
NPYLR7 ag max-min = second read-out of NPYLR7 ag, no call of its own (marks repeat the call); activation, %; measured here: Max-Min RFU normalised activation; some inactives read as strong as hits;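 span of the calcium signal over five minutes; 0% = vehicle and 100% = native peptide agonist; compound fluorescence can raise it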
* hit, by the source's call; & = joins results of further samples. Only part of the results is shown; count on the stated rates, not on these rows.

Sequence of screens: NPYLR7 ag | NPYLR7 ag max-min
- CN(CC(=O)Nc1ccccc1Br)C(=O)CCc1ncc(-c2ccccc2)o1
  6 | 0
- Cc1ccc(-n2cnnc2SCC(C#N)CCC#N)cc1Cl (stereo not given)
  0 | -2
- Cc1ccc(NC(=O)CN2C(=O)NC(C)(c3ccco3)C2=O)c(F)c1 (stereo not given)
  3 | 0
- O=S(=O)(Nc1ccc(-n2cnnn2)cc1)c1cccs1
  -1 | -2
- O=C(CC(c1ccccc1)c1ccc2c(c1)OCO2)NCCc1cccnc1 (stereo not given)
  2 | -1
- COCC(=O)Nc1ccc(N2CCN(S(=O)(=O)c3ccc(OC)cc3OC)CC2)nc1
  17 | 17
- Cc1cnn(C2CCN(C(=O)NCc3cc(F)ccc3F)CC2)c1
  -30&-6 | -31&-6
- COc1ccnc(N2CCN(C(=O)NCc3ccccc3OC(C)(C)C)CC2)c1
  3 | 3
- COc1ccc(Br)c(CC(=O)OCCc2scnc2C)c1
  8 | 4
- CCONC(=O)COc1ccc(Oc2ccccc2)cc1
  7 | 4
- COCCN(Cc1ccccc1OS(=O)(=O)c1ccc(NC(C)=O)cc1)C(=O)CC(C)(C)C
  -11 | -6
- OC(Cc1ccccc1)CN(Cc1ccc(F)cc1)Cc1cccs1 (stereo not given)
  32 | 31
- CC(N)=C(C#N)C(=O)COC(=O)CCN1C(=O)C2CC=CCC2C1=O (stereo not given)
  2 | 5
- O=C(CN1CCN(c2ncccn2)CC1)N1CCC2(CCCO2)CC1
  -2 | -2
- C=CCN(CC(=O)N1CCc2sccc2C1c1ccc(Cl)cc1Cl)S(=O)(=O)c1cccc(C(F)(F)F)c1 (stereo not given)
  -2 | 3

Arranged by molar mass (falling): five of the compounds above
Sequence of screens: NPYLR7 ag | NPYLR7 ag max-min
- C=CCN(CC(=O)N1CCc2sccc2C1c1ccc(Cl)cc1Cl)S(=O)(=O)c1cccc(C(F)(F)F)c1 (stereo not given)
  -2 | 3
- O=C(CC(c1ccccc1)c1ccc2c(c1)OCO2)NCCc1cccnc1 (stereo not given)
  2 | -1
- O=C(CN1CCN(c2ncccn2)CC1)N1CCC2(CCCO2)CC1
  -2 | -2
- Cc1cnn(C2CCN(C(=O)NCc3cc(F)ccc3F)CC2)c1
  -30&-6 | -31&-6
- CCONC(=O)COc1ccc(Oc2ccccc2)cc1
  7 | 4

Next entries follow.
Sequence of screens: NPYLR7 ag | NPYLR7 ag max-min
- NC(=O)c1ccc(C(=O)N2CCC(=Cc3ccccc3)CC2)cc1
  7 | 3
- COc1ccc(C(=O)Nc2ccc(Cl)c(-c3nc4cc(C)ccc4o3)c2)cc1OC
  -1 | -10
- COc1ccnc(N2Cc3cnn(Cc4ccc(F)cc4)c3C2)n1
  -4 | -5
- Cn1c(-c2ccc3nc[nH]c3c2)nc2cc(N)ccc21
  2 | 1
- CC1=C(/C=C/C(C)=C/C=C/C(C)=C/C=C/C=C(C)/C=C/C=C(C)/C=C/C2=C(C)CCCC2(C)C)C(C)(C)CCC1
  -6 | -11
- COCC(O)CN(C)c1ccc(-n2ccc(C)n2)nn1 (stereo not given)
  6 | 5
- CC1(C(=O)NS(=O)(=O)c2ccc3c(c2)CCO3)CCN1C(=O)c1ccccc1CCc1ccccc1 (stereo not given)
  6 | 3
- O=C(NCCN1CCCC1)[C@@]1(OCc2cccc(C(F)(F)F)c2)CC(OCc2ccc(F)cc2)[C@H](O)[C@H](O)C1 (stereo not given in full)
  -5 | -8
- CC(C)CN1CCN(S(=O)(=O)N2CCN(C)CC2)CC1
  3 | 2
- COc1cccc(C2=C(C(C)=O)Sc3nnc(C)n3N2C(C)=O)c1
  1 | -2
- O=C(NC1CCCCCCC1)c1cccn2c(=O)c3sccc3nc12
  -2 | -1
- C=CCC1(Nc2ccc(F)cc2)CCCCCC1
  8 | 7
- O=C(c1ccc(CSc2ccc(C(F)(F)F)cn2)cc1)N1C2CCC1CC(Oc1ccc3c(c1)OCO3)C2 (stereo not given)
  -8 | -14
- Cc1ccc2c(c1)N1C(=O)c3ccccc3C1C1C(=O)CC(C)(C)CC1=N2 (stereo not given)
  17 | 11
- CCOC(=O)c1cn[nH]c1S(=O)(=O)N1CCN(C(=O)OC(C)(C)C)CC1
  -1 | -4

Other results:
Sequence of screens: NPYLR7 ag | NPYLR7 ag max-min
- O=c1c2nnn(-c3ccc(Cl)cc3)c2ncn1Cc1ccc(F)cc1
  -2 | -5
- CN(CC1CCN(CCc2ccc(F)cc2)CC1)C(=O)/C=C/c1cnn(C)c1
  -2 | -5
- Cn1cc(N=Cc2ccccc2[N+](=O)[O-])c(C(N)=O)n1
  -4 | -10
- CC1(C)Cc2c(ccc3ccccc23)C(CC#N)=N1
  -2 | -4
- Cc1ccc2nc(-c3ccc(C)c(NC(=O)c4ccc([N+](=O)[O-])cc4)c3)oc2c1
  -5 | -9
- Cc1cccn2c(=O)nc(SCc3cccc(C(F)(F)F)c3)nc12
  6 | 6
- O=C(c1ncoc1C1CC1)N1CCCC(c2n[nH]c(=O)n2-c2ccccc2)C1 (stereo not given)
  6 | 5
- COc1ccc(NC(=O)C2CC(=O)N(C)C(=Nc3ccc(Cl)cc3)S2)cc1 (stereo not given)
  -1 | -3
- COc1cccc(C2c3cccn3CCCN2Cc2cc(C)cc(C)c2)c1OC (stereo not given)
  0 | 8
- COCc1ccc(CN2CCc3c([nH]c4ccccc34)C2c2cccc(OC)c2)o1 (stereo not given)
  -3 | -7
- O=C(N1CCN(c2nccc(-c3ccc(N4CCOCC4)cc3)n2)CC1)C(F)(F)C(F)(F)C(F)(F)F
  -6 | -11
- Fc1ccc(-c2cc3ncnc(N4CCN(c5ncccn5)CC4)c3s2)cc1
  5 | 15
- CCCCN(CC(=O)N(CCc1c[nH]c2ccccc12)Cc1ccc(F)cc1)C(=O)NCC(=O)OCC
  10 | 9
- COC(=O)C(CCSC)NC(=O)CCc1nnc(CCc2ccccc2)o1 (stereo not given)
  3 | 1
- Cc1cc(N2CCC(NC(=O)C3CC3(Cl)Cl)CC2)nc(C)n1 (stereo not given)
  -1 | 4

Remaining list, next part
Sequence of screens: NPYLR7 ag | NPYLR7 ag max-min
- CC=CCOc1ccccc1-n1c(C)cn2c3c(=O)n(C)c(=O)n(C)c3nc12
  -11 | -13
- O=S(=O)(Nc1ccc(S(=O)(=O)C(F)F)cc1)c1ccc(Cl)cc1
  -1 | -3
- O=C(NC(=S)Nc1ccccn1)c1ccc(Cl)cc1Cl
  -3 | -5
- Cc1ccc(C2CC(c3ccc4c(c3)OCO4)=Nc3ncnn32)cc1 (stereo not given)
  5 | 2
- O=C(c1cnc2cccnn12)N1C[C@H]2C[C@H](C1)[C@@H]1CCCC(=O)N1C2
  0 | -4
- CC1CN(CC2CCN(C(=O)OC(C)(C)C)CC2)c2ccccc2NC1=O (stereo not given)
  2 | -4
- CC1=C(C(=O)N2CCC3(CC2)CC(=O)c2c(ccc4ccccc24)O3)CCCO1
  -6 | 8
- CN1C(=C2C=NN(C)P2(=Nc2ccc([N+](=O)[O-])cc2)N2CCOCC2)C(C)(C)c2ccccc21 (stereo not given)
  1 | 0
- COc1ccc(-c2cc(C(=O)N3CCN(c4ccccc4OC)CC3)n3nc(-c4ccccc4)cc3n2)cc1
  -4 | 2
- CC(C)(C)c1ccc(CN(CCN2CCOCC2)Cc2nc(C(=O)O)co2)cc1
  12 | 19
- COc1ccc(-c2cc(C(=O)N(CCC#N)Cc3cccnc3)n3nc(C(C)(C)C)cc3n2)cc1
  -9&18 | -9&19
- O=C(O)CSc1ccc(S(=O)C(F)(F)C(F)(F)C(F)(F)F)cc1[N+](=O)[O-] (stereo not given)
  -1 | -3
- CC1(C)CC2CC(C)(CN2C(=O)c2ccc(NS(=O)(=O)c3cccs3)cc2)C1 (stereo not given)
  0 | -6
- O=C(CCN1C(=O)C2CC=CCC2C1=O)NCc1ccco1 (stereo not given)
  7 | 15
- Cn1c(=O)[nH]c(=O)c2c1nc1n2CC(c2ccc(Cl)cc2)=NN1
  -5 | -1

Going on with the list:
Sequence of screens: NPYLR7 ag | NPYLR7 ag max-min
- O=C(NCCC(c1ccccc1)c1ccccc1)C1CCCN1c1nc(Cc2ccc(Cl)cc2)ns1 (stereo not given)
  5 | 8
- CN(c1ccccc1)N1CC(C(=O)N[C@@H]2C[C@H]3CC[C@@H]2C3)CC1=O (stereo not given in full)
  -7 | -9
- O=C(CCl)NNC(=O)c1cc2c(s1)CCCC2
  0 | 0
- Cc1cc(C(=O)N(CCCN(C)C)c2nc3ccc(Cl)cc3s2)on1
  1 | 8
- CCC(CC)N(CC(=O)N1CCN(S(C)(=O)=O)CC1)c1ccc(C)c(C)c1
  10 | 7
- CC1=NN(Cc2ccccc2)C(=O)C1C(c1ccncc1)C(C#N)C#N (stereo not given)
  -2 | 9
- COc1ccc(S(=O)(=O)Oc2ccccc2CN(Cc2ccco2)C(=O)NC(C)C)cc1
  -3 | 0
- Nc1cc(C(=O)N=Nc2c(O)[nH]c3ccc(Br)cc23)n[nH]c1=O
  -2 | -9
- O=C(Nc1ccc(Oc2cccnc2)cc1)C1CCCCN1Cc1ccc2c(c1)CCO2 (stereo not given)
  -2 | -6
- CSc1nnc(C)c2cnn(-c3ccc(C)c(C)c3)c12
  -7 | -11
- CCOc1ccccc1CNC(=O)c1cnc2c(-c3cccc(Cl)c3)cnn2c1C
  16 | 11
- O=C1C(=O)N(CN2N=C(c3cccs3)CC2c2cccs2)c2ccccc21 (stereo not given)
  -4 | 4
- CCN1CCN(C(=O)c2ccc(-c3n[nH]c4c3CCc3cc(OC)ccc3-4)cc2)CC1
  5 | -2
- CSCCNC(=O)C1(C)CCN1C(=O)Cc1ccc(C(C)C)cc1 (stereo not given)
  1 | 0
- COc1cn(-c2cccc(C(F)(F)F)c2)nc1C(=O)NC(C)C
  -1 | -4

Further results follow.
Sequence of screens: NPYLR7 ag | NPYLR7 ag max-min
- N#Cc1ccccc1CSc1nnc(NC(=O)c2ccccc2F)s1
  7 | 17
- c1cc(-c2nnc(CCCCc3nnc(-c4ccncc4)o3)o2)ccn1
  18 | 9
- COc1cc(S(=O)(=O)n2nc(C)cc2C)ccc1Cl
  10 | 7
- NC(=O)C1Cc2ccccc2CN1CCOc1ccc(F)cc1 (stereo not given)
  8 | 6
- Cc1csc(=Nc2ccc(Cl)cc2)n1-c1ccc(Cl)cc1
  4 | 3
- CCOC(=O)C1CCN(C(c2cccc(Br)c2)C2Sc3nc(C)nn3C2=O)CC1 (stereo not given)
  -1 | -1
- O=C(CC1CC2CCC1C2)NC1CCS(=O)(=O)C1 (stereo not given)
  -3 | -2
- COC(=O)CSc1nc2nc3c(cn2n1)C(=O)CCC3
  3 | -2
- CCS(=O)(=O)CCOS(=O)(=O)c1c(C(C)C)cc(C(C)C)cc1C(C)C
  3 | 1
- Cc1ccc(OCCCN2C(=O)c3ccccc3C2=O)c([N+](=O)[O-])c1
  -5 | -2
- Cc1cccn2c(=O)nc(SCC(=O)N3CCOCC3)nc12
  12 | 9
- C#CCOC(=O)CCN1C(=O)c2cccc3cccc(c23)C1=O
  0 | 0
- COc1cc(C(=O)N2CCC(c3nc(-c4ccccc4F)no3)CC2)cc(OC)c1OC
  -4 | -4
- COc1ccc(NC(=O)O/N=C2\CCCc3ccc(OC)cc32)cc1
  0 | -1
- CC(=O)N1CCCC(Cn2cnc3sccc3c2=O)C1 (stereo not given)
  11 | 10

Going on with the list:
Sequence of screens: NPYLR7 ag | NPYLR7 ag max-min
- CCn1nc(C(=O)N2CCN(c3ccccc3)CC2)c2c1CCN(C(=O)Cc1cccs1)C2
  0 | -5
- CC1(C(=O)Nc2ccccc2Cc2ccccc2)CCN1CCc1ccccc1 (stereo not given)
  8 | 2
- N#CC(=Cc1ccc[nH]1)c1nc(-c2ccc(O)cc2O)cs1
  11 | 3
- CCc1nccn1CC(C)NC1CCN(C(=O)c2ccc(C)cc2)CC1 (stereo not given)
  5 | 3
- CC(C)NC(=O)N1CCN(C(C(=O)N2CCCC2)C2CCCC2)CC1 (stereo not given)
  -6 | 0
- Cc1noc(-c2ccccc2Cl)c1C(=O)NCCOc1ccccc1
  2 | 15
- COc1ccc(CC(=O)NCCc2cc3cc(C)c(C)cc3[nH]c2=O)cc1
  1 | 6
- CN(C(=O)c1cccs1)c1ccccc1-c1n[nH]c(Cc2ccccc2)n1
  -10 | -7
- CCOC(=O)N1CCN(C(=O)c2ccccc2SCc2ccsc2)CC1
  8 | 3
- CCc1ccc(CN2CCC(Oc3cc(C(=O)NC4CC4)ccc3OC)CC2)cc1
  5 | -2
- CN(C)Cn1c(O)c(N=NC(=O)c2cccnc2)c2ccccc21
  8 | 5
- COCCN(Cc1ccc(C)s1)CC(O)c1ccccc1 (stereo not given)
  -1 | 10
- O=C(COCc1ccccc1)N1CCc2c(sc3[nH]c(=O)n(-c4ccccc4C(F)(F)F)c(=O)c23)C1
  16 | 8
- OCCC1CN(Cc2ccc3c(c2)OCCO3)CCN1Cc1cccs1 (stereo not given)
  2 | -2
- CC(=O)OCC1OC(Oc2ccccc2Cl)C(OC(C)=O)C(OC(C)=O)C1OC(C)=O (stereo not given)
  -3 | -4

An excerpt of these results, as a markdown table.
| SMILES | NPYLR7 ag | NPYLR7 ag max-min |
| --- | --- | --- |
| N#CC(=Cc1ccc[nH]1)c1nc(-c2ccc(O)cc2O)cs1 | 11 | 3 |
| CCc1nccn1CC(C)NC1CCN(C(=O)c2ccc(C)cc2)CC1 (stereo not given) | 5 | 3 |

Next entries follow:
Sequence of screens: NPYLR7 ag | NPYLR7 ag max-min
- COc1cc(-c2ccc(F)c(CO)c2)nc(OC)n1
  10 | 5
- Cc1cc(C)cc(N2CCN(Cc3cnc(N4CCCC4)nc3)CC2=O)c1
  3 | 3
- COc1ccc(-c2cc(C(=O)NC3CCCCCCC3)c3ccccc3n2)cc1OC
  -6 | -10
- CCn1cc(CN2CCC(Oc3ccccc3C(=O)N3CCCCC3)CC2)c2ccccc21
  -3 | -9
